Vif TR-FRET – inhibitors of Vif binding to APOBEC3G peptide, primary screen, biochemical, TR-FRET, GST-Vif 1-94, biotin-A3G peptide, dose response retest (AID 1117319); TR-FRET GST-Vif / biotin-A3G peptide binding; higher % means a stronger effect; test concentration not given here; strong numbers were not always called active; inhibition, %; hits with a dose series show IC50 in µM; 260,000 tested, 0.57% active;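 active means above the screen mean plus three standard deviations and confirmed in dose response; inconclusive means results disagree or hit not tested in dose response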;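 further: Vif residues 1-94 fused to GST binding biotinylated APOBEC3G peptide 110-148; 0% = full assay without inhibitor and 100% = GST in place of GST-Vif; retest series ran down from 100 µM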
ALR inh – human ALR oxidase inhibition via reduced H2O2 | P55789 | purified ALR, DTT oxidation, H2O2 HRP-luminol luminescence | inhibition, % (concentration not given with the values) | 290,000 tested, 3.8% active | AID 485317;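 active means mean and each replicate at 75% or more; inconclusive means only one of the two met; inactive means neither met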;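 further: stock transfer was 7.5 nL into about 7.5 µL; 0% = neutral wells and 100% = wells with inactivated enzyme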
Target sequence (P55789 whole entry, looked up): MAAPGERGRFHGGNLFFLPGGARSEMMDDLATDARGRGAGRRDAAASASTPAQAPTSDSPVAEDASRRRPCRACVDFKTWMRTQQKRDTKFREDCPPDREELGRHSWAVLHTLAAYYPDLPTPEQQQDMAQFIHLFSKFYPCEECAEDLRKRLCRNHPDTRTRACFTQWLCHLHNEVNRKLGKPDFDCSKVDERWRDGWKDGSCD
rRNA inh HTS – selective bacterial rRNA inhibition in E. coli; GFP signal change (wild-type ribosome), % (no concentration beside the values); E. coli WT GFP vs humanized-ribosome RFP mutants, fluorescence, 24 h; hits give low values; DMSO median 0, no signal -100; 350,000 tested, 1.6% active;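 active means significant combined selectivity score with lowered wild-type GFP, culture density cut under 30%, mutant RFP and density less affected; inactive means any of these conditions unmet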; further: one replicate is shown; some compounds called inactive have numbers as strong as hits
FGF22 binding – binders of recombinant human FGF22 by thermal shift; SYPRO orange fluorescence; percent of sucrose octasulfate shift, DMSO zero; calls only at 9.99 µM; 340,000 tested, 1.5% active;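 active means melting point raised past a set limit in the mean and every replicate; inconclusive means no clear call; three in four hits are not shown here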
Target sequence (Q9HCT0 whole entry, looked up): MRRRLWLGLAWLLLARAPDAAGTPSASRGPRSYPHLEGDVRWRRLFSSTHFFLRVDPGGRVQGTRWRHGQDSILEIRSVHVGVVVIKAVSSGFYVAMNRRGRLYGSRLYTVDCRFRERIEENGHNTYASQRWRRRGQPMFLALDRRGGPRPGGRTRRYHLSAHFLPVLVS
Ecoli growth – blocks Escherichia coli growth | OD600 absorbance (concentration not given with the values) | OD600, 23 h; hits give low values | AID 1053175 | 330,000 tested, 0.21% active;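 active means OD600 absorbance below the run mean of sample wells minus 3.6 SD, in any replicate, cut at about 0.56 in these data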;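 further: stock transfer was 300 nL into about 60 µL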
HNF4A DNA FP – change in binding of human HNF4 alpha to DNA. 360,000 tested, 0.3% active. P41235. AID 1224865. activity change, % at 10 µM. HNF4a-FITC DNA binding, fluorescence polarization, 1 h; in the data active means activity change above about 30%, passing the limit was not always enough;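 further: controls were the assay level and a saturating level of protein; the project sought stronger binding though the title names inhibitors; some compounds called inactive have numbers as strong as hits; positive values seem to mean higher polarization but the record does not say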
MLL AF4-AF9 inh – inhibitors of human MLL-AF4/AF9 interaction. inhibition, % at 10 µM. 350,000 tested, 0.47% active. AlphaScreen, biotin-AF4 peptide binding to FLAG-AF9. P42568;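 active means every replicate reaching a set inhibition limit, whatever the replicate mean, cut at about 25% in these data; inconclusive means mean inhibition reaches that limit but some replicates miss it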;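 further: 0% = plate neutral control median and 100% = total signal loss; the record names both 10 and 1 µM as test concentration; the first replicate is given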
Target sequence (P42568 whole entry, looked up): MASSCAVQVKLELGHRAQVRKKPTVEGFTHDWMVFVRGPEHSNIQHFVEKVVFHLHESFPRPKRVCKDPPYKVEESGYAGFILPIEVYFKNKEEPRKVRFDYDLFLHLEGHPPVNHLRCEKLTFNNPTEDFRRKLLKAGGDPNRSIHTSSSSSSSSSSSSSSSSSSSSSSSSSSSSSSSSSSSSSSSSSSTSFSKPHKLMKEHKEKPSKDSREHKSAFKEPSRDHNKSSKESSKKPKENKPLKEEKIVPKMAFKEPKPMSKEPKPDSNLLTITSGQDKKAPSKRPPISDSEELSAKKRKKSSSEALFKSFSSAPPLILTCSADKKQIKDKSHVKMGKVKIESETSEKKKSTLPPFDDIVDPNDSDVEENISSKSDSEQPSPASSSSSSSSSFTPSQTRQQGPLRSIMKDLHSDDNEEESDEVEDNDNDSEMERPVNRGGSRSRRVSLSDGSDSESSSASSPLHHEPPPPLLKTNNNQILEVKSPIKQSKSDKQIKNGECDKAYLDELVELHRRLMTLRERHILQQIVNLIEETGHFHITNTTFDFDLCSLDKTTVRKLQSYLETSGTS
rRNA inh HTS OD600 – recorded beside rRNA inh HTS, whose call it bears; OD600 change, %; measured here: OD600 growth;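 optical density of the mix in the first replicate; 0 = DMSO median and -100 = no signal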
rRNA inh HTS RFP – also measured in rRNA inh HTS; calls as there; RFP signal change, %; measured here: RFP humanized mutant strains;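 first replicate; 0 = DMSO median and -100 = no signal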
* hit, by the source's call; i = inactive; ? = inconclusive; nt = not tested or not shown; + = active, no number; & = joins results of further samples.

No.	SMILES	Vif TR-FRET	ALR inh	rRNA inh HTS	rRNA inh HTS OD600	rRNA inh HTS RFP	FGF22 binding	Ecoli growth	HNF4A DNA FP	MLL AF4-AF9 inh
1	CN1CCN(C2CN(Cc3cn(Cc4ccc(Cl)cc4)nn3)S(=O)(=O)C2)CC1 (configuration not stated)	nt	nt	1.9	1.8	-2.2	i	nt	2.8	-1.1
2	CSc1nc2ccc3nc(NC(=O)c4cccs4)sc3c2s1	>100µM*	0.9	nt	nt	nt	nt	0.682	62.3*	nt
3	O=C(COC(=O)c1ccc(O)cc1O)NC(=O)NCc1ccccc1	nt	nt	4.8	-11.1	6.0	i	0.692	-0.4	0.8
4	Nc1ncnc2c1ncn2[C@@H]1O[C@H](C(=O)N2CCCN(Cc3cccs3)CC2)[C@@H](O)[C@H]1O	nt	nt	13.9	0.7	-1.7	i	nt	2.3	0.3
5	Cc1ccc(O)c(/C=N/NC(=O)Cc2ccc(Cl)cc2)c1	0.2%	-1.3	6.8	2.4	-1.0	i	nt	-3.3	0.7
6	O=C(c1cc(C2CC2)nn1-c1ccccc1)N1CCN(Cc2ccc(Cl)cc2)CC1	nt	nt	-45.4	-72.4	-9.3	i	0.658	-0.7	1.9
7	CCCCC(CC(O)COCCC)C(=O)NN (configuration not stated)	-0.4%	nt	6.6	3.0	-0.1	i	0.725	-2.6	0.1
8	O=C(Nc1nnc(C2CCCO2)s1)c1cccs1 (configuration not stated)	52.6%	0.7	nt	nt	nt	nt	0.687	1.9	nt

Quoted from the listing:
#6 in Ecoli growth: 0.658
#4 in rRNA inh HTS: 13.9

(continued)
No.	SMILES	Vif TR-FRET	ALR inh	rRNA inh HTS	rRNA inh HTS OD600	rRNA inh HTS RFP	FGF22 binding	Ecoli growth	HNF4A DNA FP	MLL AF4-AF9 inh
9	Cc1ccc(-c2ccc3c(c2)O[C@@H](CN(C)Cc2ccncc2)[C@@H](C)CN([C@@H](C)CO)S3(=O)=O)cc1	nt	nt	-4.4	-18.6	12.6	i	nt	nt	-1.8
10	O=C(Nc1ccccc1)c1cccc(S(=O)(=O)NCc2ccco2)c1	1.4%	20.1	nt	nt	nt	nt	0.664	-2.3	nt
11	Cc1noc(C)c1S(=O)(=O)N(C)C[C@H]1OCCCC[C@H](C)Oc2ccc(NC(=O)NC(C)C)cc2C(=O)N([C@H](C)CO)C[C@@H]1C	nt	nt	1.3	2.2	-1.7	i	nt	nt	-2.8
12	CC(=O)N1CC2(C1)[C@H](c1ccccc1)[C@H](CO)N2CC1CCOCC1	nt	nt	5.0	0.1	-3.1	i	nt	nt	-1.7
13	COc1ccccc1-c1cccc(-c2nc(C(=O)N3CCOCC3)cc3c2[C@@H](CCO)N([S@](=O)C(C)(C)C)C3)c1	nt	nt	1.1	5.5	-0.5	i	nt	nt	1.5
14	CCNC(=O)CC1C(=O)N(c2cccc(OC)c2)C(=O)N1CCOC (configuration not stated)	-0.2%	-2.7	nt	nt	nt	nt	0.673	0.9	nt
15	COc1ccccc1CNC(=O)c1ccc2c(=O)n(CC3CCCO3)c(=S)[nH]c2c1 (configuration not stated)	-3.2%	nt	7.0	-2.3	3.1	i	0.669	3.0	-3.4
16	CCOc1ncccc1C(=O)N(CCC(C)C)c1c(N)n(Cc2ccccc2)c(=O)[nH]c1=O	2.1%	-6.7	4.4	10.6	7.2	i	0.709	-1.1	-1.7
17	COc1ccccc1NS(=O)(=O)c1cccc(NC(=O)Nc2ccccc2)c1	-9.8%	1.0	-11.1	-8.1	-4.6	i	0.691	-0.4	5.9
18	CCC(C)[C@H](NC(=O)N1CCn2c1nc1ccccc12)C(=O)NCCc1ccccc1 (some centres not stated)	0.0%	-13.6	-0.9	14.5	1.3	+	0.654	-0.7	-5.9
19	COc1ccc(CC(N)c2csc(NC(=O)c3ccc(F)cc3)n2)cc1 (configuration not stated)	nt	nt	-2.5	-19.3	10.9	i	nt	8.4	5.1
20	CCCc1nc2ccccc2c(C(=O)OC2CCOC2=O)c1CC (configuration not stated)	?	58.4	nt	nt	nt	nt	0.726	1.9	nt
21	COc1cccc(CNC(=O)C2CCN(c3ncnc4c3nc3n4CCCCC3)CC2)c1	nt	-1.9	17.2	20.9	2.1	i	0.7	0.7	-1.6
22	COC(=O)[C@]12CCCCC=C1N(Cc1ccc3c(c1)OCO3)C(=O)[C@H](CC(=O)N1CCCCC1)C2	nt	nt	-18.5	-29.2	1.9	i	nt	1.4	2.6
23	COc1ccc(NC(=O)CCCN2C(=O)C(c3ccccc3)Oc3cccnc32)cc1 (configuration not stated)	nt	6.0	-9.9	1.8	0.1	i	0.73	-6.3	-0.2
24	Cc1onc(-c2ccccc2Cl)c1C(=O)N1C=CC(C(F)(F)F)=NCC1	?	-0.5	nt	nt	nt	nt	0.716	-1.5	nt
25	CCOc1ccc(CCN2C(=O)C(=O)N([C@@H](CC(C)C)CN3CCC[C@@H]3CN3C(=O)C(=O)NC[C@@H]3Cc3ccccc3)C[C@@H]2Cc2ccc(O)cc2)cc1	1.5%	nt	-35.4	-48.2	9.2	i	nt	0.2	3.8
26	CCN=C1SC(C(=O)Nc2ccc(OCC)cc2)CC(=O)N1CC (configuration not stated)	11.0%	-5.7	6.7	9.8	2.0	i	0.685	-1.0	1.6
27	COc1cccc(C(=O)N2C[C@@H]3[C@H](c4ccccc42)[C@@H](CO)N3Cc2ccccc2F)c1	nt	nt	-8.9	-12.2	-3.2	i	nt	nt	3.0
28	Cc1nc(C)c(C(=O)C2=C(O)C(=O)N(CCN3CCOCC3)C2c2cccs2)s1 (configuration not stated)	?	-1.9	nt	nt	nt	nt	0.734	11.8	nt
29	CC/C(O)=C1\C(=O)CC(c2ccccc2)CC1=NC(C)C (configuration not stated)	-4.4%	0.3	nt	nt	nt	nt	0.701	-2.9	nt
30	C[C@H](CO)N1C[C@H](C)[C@@H](CN(C)S(=O)(=O)c2cn(C)cn2)Oc2c(NC(=O)Nc3ccc4c(c3)OCO4)cccc2C1=O	nt	-1.6	1.1&-2.0	-4.9&1.9	0.4&-3.1	i	nt	-1.3	-2.4&-2.2
31	COc1cc(NC(=O)c2ccccc2)ccc1NC(=O)Cc1ccccc1	nt	0.2	4.8	8.1	-1.5	i	0.686	-1.8	-2.9
32	N#CC1=C(N)SC(N)=C(C#N)C1c1cccc(Oc2ccccc2)c1	0.8%	14.1	-35.4	-47.8	-3.3	i	0.621	135.7	-74.3

Quoted at random: two entries already listed, in no set order.
No.	SMILES	Vif TR-FRET	ALR inh	rRNA inh HTS	rRNA inh HTS OD600	rRNA inh HTS RFP	FGF22 binding	Ecoli growth	HNF4A DNA FP	MLL AF4-AF9 inh
29	CC/C(O)=C1\C(=O)CC(c2ccccc2)CC1=NC(C)C (configuration not stated)	-4.4%	0.3	nt	nt	nt	nt	0.701	-2.9	nt
31	COc1cc(NC(=O)c2ccccc2)ccc1NC(=O)Cc1ccccc1	nt	0.2	4.8	8.1	-1.5	i	0.686	-1.8	-2.9

The list goes on:
No.	SMILES	Vif TR-FRET	ALR inh	rRNA inh HTS	rRNA inh HTS OD600	rRNA inh HTS RFP	FGF22 binding	Ecoli growth	HNF4A DNA FP	MLL AF4-AF9 inh
33	O=C(/C=C/NNC(=O)c1ccc(Br)cc1)c1ccccc1	3.7%	-0.4	nt	nt	nt	nt	nt	4.4	nt
34	CCOC(=O)c1c(NC(=O)Cc2cccs2)sc2c1CCCC2	-6.0%	-1.0	nt	nt	nt	nt	0.729	0.2	nt
35	COc1ccc(C(=O)NCC(=O)NCc2ccncc2)cc1	-7.5%	-2.1	14.0	8.3	2.3	i	0.68	-1.5	-0.2
36	C[C@@H]1CN([C@@H](C)CO)C(=O)c2cc(-c3cccnc3)cnc2O[C@H]1CN(C)C(=O)Nc1ccc(F)cc1	nt	nt	-2.9	-2.9	-1.9	i	nt	nt	-0.9
37	CO[C@H]1CN(C)C(=O)c2ccc(NC(C)=O)cc2OC[C@@H](C)N(C(=O)c2ccccn2)C[C@H]1C	nt	nt	2.1	8.9	-0.1	i	nt	nt	2.0
38	CN(CC(=O)Nc1c(Cl)cccc1Cl)C(=O)c1cc(S(=O)(=O)N(C)C)ccc1N1CCCC1	nt	-0.8	-3.3	-1.2	1.1	i	0.686	-5.6	3.9
39	O=C1CCC2(CC1)NC(=O)N(c1ccccc1)N2	nt	-13.1	11.1	11.6	6.4	i	0.717	0.5	0.2
40	CCC(=O)Nc1ccc2c(c1)OC[C@H](C)N(C(=O)c1ccc(F)cc1)C[C@H](C)[C@H](OC)CN(C)C2=O	nt	nt	0.2	3.2	-0.5	i	nt	nt	-1.7
41	COc1ccc(CNC(=O)C(c2cccc(C)c2)N(C(=O)c2csnn2)C2CC2)cc1 (configuration not stated)	nt	-1.3	-3.9	-6.8	2.1	i	0.655	2.2	-1.2
42	Cc1cc(C)c(N)cc1C	nt	-0.4	3.3	5.0	0.5	i	0.672	-3.3	nt
43	CCN(CC)C(=O)C1=C(C)N(Cc2ccc(OC)cc2)C(=O)C(CC(=O)NCc2ccco2)C1 (configuration not stated)	13.6%	nt	10.5	10.5	-2.0	i	nt	-0.3	-5.0
44	COCC(=O)N1CCC(Oc2ccc(C(=O)NCc3cnc(C)cn3)cc2)CC1	-5.9%	-1.9	6.5	-3.6	-1.0	i	0.672	-0.6	-4.8
45	CCOc1ccccc1C(=O)NCCCN1CCN(CCCNC(=O)c2ccccc2OCC)CC1	-6.8%&0.7%	-7.0	nt	nt	nt	nt	0.681	-2.4	nt
46	CC1(C(=O)NS(=O)(=O)c2ccccc2)CCN1C(=O)Cc1ccc(Cl)cc1Cl (configuration not stated)	nt	nt	7.2	10.1	-0.6	i	nt	7.0	-0.6
47	O=S(=O)(c1ccc(Oc2ccc(S(=O)(=O)N3CCOCC3)cc2)cc1)N1CCOCC1	2.5%	-26.4	nt	nt	nt	nt	0.769	-4.6	nt
48	CC(=O)N1CCCCN2[C@H](C1)[C@H](c1ccc(-c3cccc(C)c3)cc1)[C@@H]2CO	nt	nt	-5.2	-4.7	-0.2	i	nt	nt	0.9
49	Cc1cccc(NC(=S)NNC(=S)NCc2ccccc2)c1	2.6%	71.5	nt	nt	nt	nt	0.723	-3.1	nt
50	CN(C)CCCNC(=O)C(=O)NCC1OCCN1S(=O)(=O)c1cc(F)ccc1F (configuration not stated)	-3.2%	nt	1.5	-0.4	0.5	i	0.734	1.6	17.0
51	COCCCNC(=O)C1CCCN(S(=O)(=O)c2ccc(C)cc2)C1 (configuration not stated)	5.8%	-3.7	nt	nt	nt	nt	0.688	2.2	nt
52	Cc1ccc(C(=O)N/C(=C\c2sccc2C)C(=O)NCCCN2CCOCC2)cc1	nt	-13.3	2.5	5.8	1.4	i	0.703	-1.5	-10.4
53	CO[C@@H]1CN(C)C(=O)c2cc(NS(=O)(=O)c3cccc(C)c3)ccc2OC[C@@H](C)N(C(=O)Cc2cccnc2)C[C@H]1C	nt	nt	-3.4	-0.9	1.5	i	nt	nt	-3.6
54	COC(=O)c1sc(S(=O)(=O)Nc2ccc(C)c(C)c2)c(C(=O)OC)c1C	nt	-4.7	-29.3	-45.3	-4.9	i	0.694	-0.4	-0.6
55	CCCc1c(-c2ccc(F)cc2)ncn1Cc1ccccc1OC	nt	nt	-34.5	-79.2	-27.1	i	nt	-5.2	7.0

Compound activity as filed in PubChem BioAssay.

An excerpt, so the mix of outcomes need not match the whole.
